CDC25B-CDK2 inh – primary biochemical HTRF screen for blockers of M-phase inducer phosphatase 2 binding to CDK2/cyclin A. HTRF CDC25B-CDK2/CyclinA binding, anti-His/anti-Flag; stronger effect = higher value. z-score (concentration not given with the values). hit rate 0.72% among 94,000. AID 1259370, 2018;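 note: score is relative to mean and SD of negative controls; strong numbers were not always called active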
TAR Tat displ – TAR RNA-Tat peptide displacers, HIV-1, primary screen, biochemical, FRET, FAM/TAMRA-labeled Tat; HIV-1 TAR RNA, Tat peptide displacement FRET; stronger effect = higher value; z-score (no concentration beside the values); AID 1259389, 2018; hit rate 0.6% among 100,000;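 note: score is relative to mean and SD of negative controls; some compounds called inactive have numbers as strong as hits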
The depositor's hits bear a star; x = not tested or not shown.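 Rule for the calls: active = z-score from 3 up in half or more of its runs; inactive = the rest.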

SMILES	CDC25B-CDK2 inh	TAR Tat displ
Cc1noc(NS(=O)(=O)c2ccc(NC(=O)c3csnn3)cc2)c1C	-1.16	1.52
CCOC(=O)c1cnc2c(C#N)cnn2c1N	-0.08	x
CCc1nnc(NC(=O)CSc2ccc(-c3cccs3)nn2)s1	x	-0.36
CSc1nc2ccc3nc(NC(=O)CN4C(=O)c5ccccc5C4=O)sc3c2s1	0.35	x
Cc1cccc(N(C)S(=O)(=O)c2ccc(-c3cc(C)no3)s2)c1	x	-0.11
NC(=O)c1ccccc1	-0.99	x
CCOC(=O)c1ccc(N2C(=O)C3ON(c4ccccc4)C(c4ccco4)C3C2=O)cc1 (configuration not stated)	-0.23	x
CSc1cccc(NS(=O)(=O)c2cc3[nH]c4c(c3cc2C)C(=O)CC(C)(C)C4)c1	x	0.21
Cc1nc2c(s1)CCc1oc(C(=O)N3CCOCC3)c(C)c1-2	x	2.07
CC(C)C(=O)N1c2ccccc2NC2=C(C(=O)CC(C)(C)C2)C1c1ccco1 (configuration not stated)	x	-0.63
Cn1c(SCc2cc(=O)c3cc(Cl)ccc3[nH]2)nnc1-c1ccccc1	x	0.16
O=C(NC(=O)c1ccc(Oc2ccc(Cl)cc2)c([N+](=O)[O-])c1)NN1CCOCC1	1.61	x

Laid out differently: entries from further up.
canonical_smiles | CDC25B-CDK2 inh | TAR Tat displ
CCOC(=O)c1ccc(N2C(=O)C3ON(c4ccccc4)C(c4ccco4)C3C2=O)cc1 (configuration not stated) | -0.23 | x
CSc1cccc(NS(=O)(=O)c2cc3[nH]c4c(c3cc2C)C(=O)CC(C)(C)C4)c1 | x | 0.21
Cc1nc2c(s1)CCc1oc(C(=O)N3CCOCC3)c(C)c1-2 | x | 2.07
CC(C)C(=O)N1c2ccccc2NC2=C(C(=O)CC(C)(C)C2)C1c1ccco1 (configuration not stated) | x | -0.63
Cn1c(SCc2cc(=O)c3cc(Cl)ccc3[nH]2)nnc1-c1ccccc1 | x | 0.16

The listing continues.
SMILES	CDC25B-CDK2 inh	TAR Tat displ
Cc1noc(-c2ccc(S(=O)(=O)N3CCc4ccccc4C3)s2)c1C	x	-0.03
Cc1ccc(-c2noc3nc[nH]c(=O)c23)cc1	-1.47	1.94
CC1CCN(c2cnnc3c(Cl)cccc23)CC1	x	0.91
COc1ccc(-c2nc(NCCc3c[nH]c4ccc(OC)cc34)sc2C)cc1	-1.9	-8.95
CCc1nn2c(=O)cc(CSCC(=O)Nc3ccccc3)nc2s1	x	-0.04
CC(C)C(O)(CC#CCN1CCCC1)c1ccccc1 (configuration not stated)	-1.26	1.22
COC(=O)c1cc(S(=O)(=O)Nc2cccc(Br)c2)cn1C	x	0.04
CCCC(C)N1CCN(C(=O)CN(C)S(=O)(=O)c2cc3c(cc2Cl)NC(=O)CO3)CC1 (configuration not stated)	x	1.36
O=C(Nc1ccc(F)cc1F)C1=Cc2sc3c(c2CS1)CCCC3	x	-0.29
Cc1cc2c(cc1S(=O)(=O)NCc1ccc3c(c1)OCO3)OCCN2C	x	1.18
CC1CCN(c2c(NCC3CCC(C(=O)NC4CCCCC4)CC3)c(=O)c2=O)CC1 (configuration not stated)	-1.47	1.08
Cc1ccc(-c2cnc(C3CC3)o2)cc1S(=O)(=O)Nc1ccc(-c2ccno2)cc1	x	1.17
CCOC(=O)COc1ccc2c(C)c(CCC(C)C)c(=O)oc2c1	-0.37	x
O=C(NCc1ccc(F)cc1)NCc1cccn1Cc1ccc(Cl)cc1	x	0.26
O=C(NCCc1nc2ccccc2[nH]1)c1cc2ccccc2o1	-0.61	-0.02
COc1ccc(Nc2ncnc3onc(-c4ccc(Cl)cc4)c23)cc1OC	-2.83	0.12
NC(N)=NC(N)=Nc1cc(-c2cccs2)[nH]n1	-1.27	x
O=C(CSc1nc(-c2ccccc2)cc(=O)[nH]1)c1c[nH]c2ccccc12	-0.91	3.44
O=C(CCC(=O)N1CCSc2ncccc21)NCc1ccc2c(c1)OCO2	x	0.12
CC1(C)CS(=O)(=O)N(c2ccc(C(=O)N3CCc4ccccc43)cc2)C1=O	0.22	0.62
CC(C)Nc1nc(Oc2ccc(=O)n(-c3ccccc3)n2)nc(N(C)C)n1	-1.57	-0.68
O=S(=O)(c1cnc[nH]1)N1CCC(CN2CCc3ccccc3C2)CC1	x	0.95
COc1ccc(-c2onc(C)c2C)cc1S(=O)(=O)N1CCN(Cc2ccc3c(c2)OCO3)CC1	x	-0.47
C=CCn1c(-c2cccnc2)nn(C(=O)c2cc(OC)c(OC)c(OC)c2)c1=S	-2.23	x

Overlap with the part before: 7 compounds, then new ones.
SMILES	CDC25B-CDK2 inh	TAR Tat displ
O=C(CSc1nc(-c2ccccc2)cc(=O)[nH]1)c1c[nH]c2ccccc12	-0.91	3.44
O=C(CCC(=O)N1CCSc2ncccc21)NCc1ccc2c(c1)OCO2	x	0.12
CC1(C)CS(=O)(=O)N(c2ccc(C(=O)N3CCc4ccccc43)cc2)C1=O	0.22	0.62
CC(C)Nc1nc(Oc2ccc(=O)n(-c3ccccc3)n2)nc(N(C)C)n1	-1.57	-0.68
O=S(=O)(c1cnc[nH]1)N1CCC(CN2CCc3ccccc3C2)CC1	x	0.95
COc1ccc(-c2onc(C)c2C)cc1S(=O)(=O)N1CCN(Cc2ccc3c(c2)OCO3)CC1	x	-0.47
C=CCn1c(-c2cccnc2)nn(C(=O)c2cc(OC)c(OC)c(OC)c2)c1=S	-2.23	x
O=C(CSc1nnc(-c2cccnc2)o1)NCCC1=CCCCC1	-1.5	1.32
CCOC(=O)C1CCN(C(=O)CCc2nnc3ccc(N4CCCC4)nn23)CC1	x	0.26
O=C1c2cccnc2C(=O)N1CCc1ccc(S(=O)(=O)NCc2ccccn2)cc1	x	0.31
COc1ccc(Br)cc1S(=O)(=O)N1CCN(Cc2ccc3c(c2)OCO3)CC1	-0.28	0.39
Cc1cc(C)cc(-n2ccnc(NC(=O)Nc3ccc(F)cc3)c2=O)c1	-0.27	-0.33
CCCCCCCOC(=O)C1=C(C)Nc2nnnn2C1c1cccc(Br)c1 (configuration not stated)	1.07	-1.76
Cc1nn(C(C)C(=O)NCc2ccccn2)c(=O)c2c1sc1ccccc12 (configuration not stated)	-0.23	0.6
CCc1nc(Oc2ccccc2)c2oc3ccccc3c2n1	x	2.1
CC1CCC(Nc2c(-c3cccc(F)c3)nc3ncccn23)CC1 (configuration not stated)	x	-0.04
O=S(=O)(c1ccc(NC(=S)Nc2ccc3c(c2)OCO3)cc1)N1CCCCC1	-1.14	x
O=C(Nc1ccc2c(c1)OCO2)C1CCN(c2ccc(-c3cccs3)nn2)CC1	x	0.39
O=C(CN1CCSc2ccccc21)NCc1cccs1	x	1.77
O=C(NCc1ccc(Cl)cc1)c1cc2c(s1)-c1ccc(Cl)cc1S(=O)(=O)C2	-0.79	-0.42
CCC(C(=O)N1CCN(c2ccccc2)CC1)n1sc2ccccc2c1=O (configuration not stated)	-1.57	1.19
CS(=O)(=O)Nc1ccccc1NS(C)(=O)=O	-2.71	x
Cc1nn2c3c(nnc2c1-c1ccccc1)C(=O)CCC3	-2.15	0.05
CCCCNC(=O)CCc1c(C)nc2c(c(C)nn2C)c1C	-2.48	2.61
COc1ccc(-c2nc3ccc(Br)cc3c(=O)o2)c(OC)c1	-2.95	x
COC(=O)CNC(=O)N1CCN(Cc2ccc3nccnc3c2)CC1	x	0.47
CN(CC(=O)NCC1CCCO1)S(=O)(=O)c1ccc2[nH]c3c(c2c1)CCCC3 (configuration not stated)	x	0.02
COc1ccc(NS(=O)(=O)c2ccc3c(c2)S(=O)(=O)N=CN3)cc1Cl	x	-0.63
COc1ccc(-c2nc3ccccc3n3cc4c(=O)n(C)c(=O)n(C)c4c23)cc1OC	0.18	-1.12
COC(=O)C1=C(C)Nc2nc(SCC(C)C)[nH]c(=O)c2C1c1sccc1C (configuration not stated)	-0.48	1.26
CCCC[C@H](NC(C)=O)C(=O)O	-0.11	x
Cc1nc(C)c(-c2ccnc(C34CC5CC(CC(C5)C3)C4)n2)o1	-0.1	x
Cc1cccc(N2CCN(CCCNc3nnc4c5ccccc5n(C)c4n3)CC2C)c1 (configuration not stated)	-2.29	1.7
CCOc1ccc(C2N(c3cc(Cl)ccc3OC)C(=O)C3CCCN32)cc1OC (configuration not stated)	-0.2	0.14
COc1ccc(Cl)cc1C(=O)N1N=C(C2CC2)CC1(O)C(F)(F)F (configuration not stated)	-3.29	x
Cc1ccc2nc(Nc3ccc(Cl)c(C(=O)O)c3)c3nncn3c2c1	-2.24	2.63
O=C(c1cc2n(n1)C(C(F)(F)F)CC(c1ccc(Br)cc1)N2)N1CCOCC1 (configuration not stated)	-1.88	1.32
COCCCNC(=O)CCC(=O)n1ncc2ccc(Cl)cc21	-0.66	0.95
CNC(=O)CSc1nccn1Cc1ccc2c(c1)OCO2	x	0.59
Cc1cc(/C(N)=N\O)n(C)n1	0.12	x
COc1cc(OC)c(NC2c3ncccc3C(=O)N2c2ccccc2)cc1Cl (configuration not stated)	x	0.84
COc1cc2c(cc1OC)CN(C(=O)c1cc(C(C)(C)C)nn1C)CC2	-1.39	x
O=C1CCCC2=C1C1c3ccccc3C(=O)N1c1ccc(C(=O)c3ccccc3)cc1N2 (configuration not stated)	-0.14	1.19
O=C(NCCN1CCOCC1)C(=O)NC1CCCCC1	0.09	-1.47
C[C@]12CC[C@@H]3c4ccc(OS(=O)(=O)O)cc4CC[C@H]3[C@@H]1CCC2=O	x	-0.01
O=C(O)C1CCCN1S(=O)(=O)c1ccc(Br)cc1 (configuration not stated)	-0.81	x
O=C(c1c2c(nc3ccccc13)C(=O)N(C1CCCCC1)C2)N1CCN(C2CCCCC2)CC1	x	0.45
CCn1cc(C2=NOC(C(=O)NCCN3CCOCC3)C2)c(C)n1 (configuration not stated)	-1.2	-0.94
O=C1CCSc2ccc(S(=O)(=O)Nc3cccc(Cl)c3)cc2N1	x	2.42
COc1ccc2nc(NC(=O)Cc3cccs3)sc2c1	x	-0.41
Cc1[nH]c(C)c(S(=O)(=O)N2CCCCC2)c1C(=O)N1CCCCC1	x	0.81
CC(C)CC(=O)Nc1cc(F)c2nc(N3CCCC3)ccc2c1	x	-0.22
Nc1nonc1N/N=C/C(=O)O	-1.71	x
Cc1ccc(CCNc2nc3ccccc3c3nc(-c4cccnc4)nn23)cc1	-0.4	0.45
Cc1ccc2nc(C3=C(O)CN(c4cccc(C)c4C)C3=N)[nH]c2c1	-2.79	2.38
CC1(C)Cc2ccccc2C(NC(=O)Nc2cccc(Br)c2)=C1C#N	-1.06	0.89
Cn1c(-c2nnc(SCC(=O)NC3CCCC3)o2)cc2ccccc21	-0.28	1.8
CC(C)(C)C(=O)Nc1ccc(C(=O)OCc2cc(=O)n3nc(C4CC4)sc3n2)cc1	x	0.22
COc1ccc(-n2c(Cc3cccn3C)nnc2SCC(=O)Nc2nccs2)cc1	-0.47	x
CCOCCCNc1cc(-n2nc(C)cc2C)ncn1	x	-0.44
O=C(Nc1cccnc1)c1cc2ccccc2oc1=O	-1.09	x
CC1CCCN(c2nnc(NC(=O)Nc3ccc4c(c3)OCCO4)s2)C1 (configuration not stated)	-0.21	0.38
O=C(CCCn1c(=S)[nH]c2ccc(Br)cc2c1=O)NCC1CCCO1 (configuration not stated)	-1.09	x
Cc1nc2sccn2c(=O)c1S(=O)(=O)Nc1cccc(Cl)c1	x	1.41
O=C(CSCc1cnn(-c2ccccc2)c1-n1cccc1)NCCN1CCCC1	0.33	-1.64
COCCNC(=O)C1CCN(C(=O)c2sccc2-n2cccc2)CC1	-1.64	-0.3
Cc1ccc(N(Cc2cc3ccc(C)cc3[nH]c2=O)S(C)(=O)=O)c(C)c1	-2.65	0.81
Other entries.
SMILES	CDC25B-CDK2 inh	TAR Tat displ
CC(C)Cc1ccc(S(=O)(=O)Nc2noc3ccccc23)cc1	0.95	-0.71
COC(=O)Cn1c(C)cc(=O)n2nc(-c3cccs3)nc12	0.03	-0.56
COc1ccc(Cl)cc1N1C(=O)C2CCCN2C1c1cccc(F)c1 (configuration not stated)	-0.36	-0.55
CCCc1cc(C2CCCN2C(=O)c2cc(-c3cccs3)on2)no1 (configuration not stated)	x	2.27
CSc1ccc(C2CC(=O)Nc3c2c(C)nn3-c2nncc(-c3ccc(C)cc3)n2)cc1 (configuration not stated)	-2.35	1.15
O=C(Nc1ccc2c(c1)OCO2)c1cnc(N2CCOCC2)nc1	x	1.67
COCCNC(=O)c1cnc2sc(N3CCOCC3)nn2c1=O	x	1.23
CCN1CCN(C(=O)c2c(C)oc3ncnc(N4CCCCC4)c23)CC1	x	-0.83
O=C(NNC(=S)NC12CC3CC(CC(C3)C1)C2)c1ccc([N+](=O)[O-])o1	-1.76	x
Cc1nnsc1C(=O)N1CCC(O)(c2ccc(Cl)cc2)CC1	-0.51	x
Cn1nnc2c(N(CCc3ccccc3)Cc3ccccc3)ncnc21	x	1.9
Cc1ccc(C(=O)O)cc1N1CC(O)=C(c2nc3ccccc3n2C)C1=N	-0.24	1.06
O=c1cc(CSc2n[nH]c(-c3ccccc3F)n2)nc2sc(C3CC3)nn12	x	0.15
Cn1c(SCc2ccccc2)nnc1-c1ccc2c(c1)OCCCO2	x	0.36
CCCn1c(=O)sc2cc(NC(=O)C3CC3)ccc21	x	1.67
O=C(CCCn1sc2ccccc2c1=O)Nc1ccccc1Cl	-1.3	1.47
COc1cc(OC)c(N(C)C(=O)c2noc3c2CCc2sccc2-3)cc1Cl	x	0.27
COC(=O)c1ccc(C2C=C(c3ccc(C(C)C)cc3)Nc3nnnn32)cc1 (configuration not stated)	x	-5.93
Cc1ccc(CSc2nc3cccnc3n2Cc2cc(=O)n3ccccc3n2)cc1	x	-0.24
CC(C)c1c(O)nc2n(c1=O)CCCS2	0.51	-0.04
CC(C)N(Cc1nc(-c2ccccc2)no1)S(=O)(=O)c1ccc(Cl)cc1	2.07	1.86
CCC(CC)C(=O)Nc1ccccc1SCc1cc(=O)n2ccsc2n1	x	0.53
COc1ccc(-c2cc(OC(=O)c3ccccc3)c3c(C)oc(C)c3c(=O)c2)cc1OC	-0.71	-5.95
COc1cc(C2C3=C(CC(C)(C)CC3=O)OC3=C2C(=O)CC(C)(C)C3)cc2sc(=O)oc12	-5.23	x
CCCCOC(=O)c1c(N)n(-c2ccccc2OC)c2nc3ccccc3nc12	1.62	x

From PubChem
